Screening data deposited in PubChem BioAssay by National Center for Advancing Translational Sciences (NCATS).
ClpP mod = qHTS Assay for Activators of ClpP; ATP-dependent Clp protease proteolytic subunit (Bacillus subtilis (strain 168)), P80244; purified B. subtilis ClpP, FRET peptide cleavage, 20 min; Potency, µM (series often up to 57.5 µM), for inactives: at the highest dose activity change, negative = active; 340,000 compounds, 1.9% hits; active = well fitted falling curve with a large enough effect; inconclusive = small, poorly fitted or top-dose-only effect; inactive = no such curve, though single readings can be large or run the other way; note: potency is the fitted concentration of half-maximal effect; the source files actives as falling curves though it sought activators and does not explain the sign; nearly all actives have a fitted effect of over 65% in size; many hits overshoot -100%
Target sequence (P80244 whole entry, looked up): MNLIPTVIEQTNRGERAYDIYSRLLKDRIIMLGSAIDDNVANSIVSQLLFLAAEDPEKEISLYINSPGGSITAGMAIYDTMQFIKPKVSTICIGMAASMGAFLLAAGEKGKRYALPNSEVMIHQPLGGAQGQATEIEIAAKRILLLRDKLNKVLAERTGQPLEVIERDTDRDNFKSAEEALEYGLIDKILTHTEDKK
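Buffer: 100 mM Tris/HCl pH8, 100 mM KCl, 0.05% low protease BSA, 2.5% glycerol, 0.01% Tween-20. ClpP 10 microg/mL final; 20 min RT; delta FRET normalized to ADEP and DMSO controls.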
gsp agonist = gsp mutant agonism. AID 624287. Potency, µM (doses to about 76.9 µM), for inactives: at the top dose activation (cAMP increase), most hits filed as activators. gsp mutant cells, cAMP HTRF, 30 min; control for the full effect not named in the record. 340,000 compounds, 0.13% hits; active = well fitted activation curve with a large enough effect; inconclusive = small, poorly fitted or top-dose-only effect, or another doubt; inactive = no such curve, though single readings can be large or run the other way; cell line not stated here;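 note: phosphodiesterase inhibitor Ro 20-1724 added with compounds to block cAMP breakdown; potency is the fitted concentration of half-maximal effect; nearly all actives have a fitted effect of over 60% in size; about a fifth of the inactives were tested at one dose only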
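Cells stably selected in G418 were plated at 2000/well, grown 16-24 hr, then given compounds in DMSO with the PDE inhibitor […] (300 uM solution added) for 30 min at 37C; cAMP was read by HTRF.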
Sfp inh = Sfp phosphopantetheinyl transferase inhibition; Biochemical Sfp PPTase activity, qHTS; 310,000 compounds, 3.5% hits; Potency, µM, for inactives: max response, negative = inhibition, most hits filed as inhibitors; active = well fitted inhibition curve with a large enough effect; inconclusive = small, poorly fitted or top-dose-only effect, or another doubt; inactive = no such curve, though single readings can be large or run the other way;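 note: the enzyme is Sfp with the accession as filed and its product quenches rhodamine fluorescence; potency is the fitted concentration of half-maximal effect; 0% = enzyme reaction without inhibitor and -100% = no enzyme wells; top concentration of the series not given in the record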
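Compounds were incubated with enzyme (final 15 nM) for 15 min at room temperature before substrate addition started the reaction. Fluorescence at 525 nm excitation, 598 nm emission was recorded immediately and after 30 minutes.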
TRPV1 PAM = human TRPV1 potentiation. TRPV1-expressing cells, Fluo-8 calcium influx, capsaicin EC20 potentiation; host cell line not named in the record; control for the full effect not named in the record. 320,000 compounds, 0.02% hits. potentiation, % at 8.33 µM. Q8NER1. AID 540277; active means potentiation above 80%; inconclusive means 30% to 80%; inactive means below 30%; note: 0% is about no effect
Target sequence (Q8NER1 whole entry, looked up): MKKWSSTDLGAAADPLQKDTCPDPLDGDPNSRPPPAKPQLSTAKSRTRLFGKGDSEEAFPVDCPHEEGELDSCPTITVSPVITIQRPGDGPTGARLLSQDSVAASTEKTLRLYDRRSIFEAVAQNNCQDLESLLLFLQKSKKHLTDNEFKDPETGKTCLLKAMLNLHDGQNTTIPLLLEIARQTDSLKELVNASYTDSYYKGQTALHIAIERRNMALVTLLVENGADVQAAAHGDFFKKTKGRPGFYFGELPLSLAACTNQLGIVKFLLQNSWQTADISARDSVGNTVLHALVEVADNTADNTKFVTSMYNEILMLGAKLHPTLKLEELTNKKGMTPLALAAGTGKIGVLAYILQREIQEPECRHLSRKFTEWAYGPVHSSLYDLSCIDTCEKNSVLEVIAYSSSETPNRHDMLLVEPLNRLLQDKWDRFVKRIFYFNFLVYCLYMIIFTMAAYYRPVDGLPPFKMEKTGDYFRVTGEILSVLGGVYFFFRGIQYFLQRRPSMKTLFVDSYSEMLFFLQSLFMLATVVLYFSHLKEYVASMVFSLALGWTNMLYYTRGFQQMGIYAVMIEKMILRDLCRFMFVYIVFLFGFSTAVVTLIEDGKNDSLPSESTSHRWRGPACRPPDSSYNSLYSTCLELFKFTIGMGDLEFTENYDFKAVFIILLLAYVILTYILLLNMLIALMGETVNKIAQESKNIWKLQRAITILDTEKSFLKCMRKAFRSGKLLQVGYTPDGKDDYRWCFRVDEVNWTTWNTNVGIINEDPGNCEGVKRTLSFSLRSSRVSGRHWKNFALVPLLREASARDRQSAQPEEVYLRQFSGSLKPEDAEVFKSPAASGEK
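Cells expressing TRPV1 were dye-loaded with Fluo-8 and read kinetically: 10 s baseline, 3 min after compound (agonist portion), then 2 min after EC20 capsaicin (allosteric enhancer portion). Calcium-bound dye fluorescence at 480/520 nm.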
gsp antag = gsp mutant antagonism; gsp-mutant cells, cAMP HTRF, 30 min; control for the full effect not named in the record; Potency, µM (doses to about 76.9 µM), without a hit: top-dose activity change, negative = inhibition, actives largely listed as inhibitors; 340,000 compounds, 0.4% hits; active = falling curve of any shape with a large fitted effect; inconclusive = falling curve, mostly with a smaller effect; inactive = flat or rising curve; cell line not stated here;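 note: intracellular cAMP measured with PDE inhibitor Ro 20-1724 present during compound exposure; potency is the fitted concentration of half-maximal effect; % is set by controls: 0 for no effect and ±100 for the full control effect; nearly all actives have a fitted effect of over 65% in size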
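HTRF cAMP measurement after 30 min RT detection following 30 min, 37C compound treatment alongside […] (added as 300 uM solution) in G418-selected cells seeded at 2000/well and grown 16–24 h.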
CtBP-E1A inh = CtBP/E1A binding inhibition; AID 651724; AlphaScreen GST-E1A/His-CtBP binding, 1536-well; active compounds read low; control for the full effect not named in the record; 340,000 compounds, 0.49% hits; activity change, % (no concentration beside the values); in the data active means activity change below about -65%; inconclusive means about -30% to -65%; inactive means above about -30%; note: % is set by controls: 0 for no effect and ±100 for the full control effect
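Steps: dispense buffer (Tris pH 8.0, NaCl 300 mM, TCEP 1 mM, BSA, Tween 20); add 5X protein mix (GST-E1A, His-CtBP, 125 nM each); pin 23 nL compound; 2 h at 37 °C, dark; add 5X beads (50 ug/mL); 1 h; read.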
Menin MLL FP FL = displaces fluorescein MLL peptide from human menin | 290,000 tested, under 10 active | Fluorescence polarization, fluorescein-MLL peptide displacement from menin | FP activity change, % at 61.4 µM; inconclusive = falling polarisation curve, or a change in total fluorescence; inactive = total fluorescence flat and polarisation flat or rising; no compound was filed as active; the % refers to the polarisation; negative = inhibition;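 note: % of control where 0% means no effect; inhibitors lower the polarisation; unlabelled MLL peptide was the positive control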
Numbers without * were called inactive; ? = inconclusive; nt = no result given; & = joins results of further samples; [ ] = dose if it differs, or a comment.

item	smiles	ClpP mod	gsp agonist	Sfp inh	TRPV1 PAM	gsp antag	CtBP-E1A inh	Menin MLL FP FL
1	C=CC[C@H](CC(=O)N[C@H](CO)Cc1ccccc1)C(=O)N[C@@H](COC(=O)[C@H](CC=C)CC(=O)OC(C)(C)C)Cc1c[nH]c2ccccc12	1.1%	21%	nt	nt	-21%	-4	nt
2	Cc1ccc2[nH]c(C(=O)N/N=C/c3ccccc3O)c(C)c2c1	-1.0%	25%	21%	-9	1%	nt	8.7
3	Cn1c(/C=N/NC(=O)c2ccccc2)nc2ccccc21	-21%	-52%	-29%	nt	3%	9	-5.1
4	O=C(O)c1cc(NN=C2CCN(Cc3ccccc3)CC2)ccc1Cl	-15%	-19%	-17%	10	-5%	-1	2.9
5	CN1C[C@@H]2C(c3ccccc3)C3(c4ccc(C#N)cc4)CC2(C3)[C@H]1c1ccccc1 (some centres undefined)	-1.7%	nt	12%&-4%	-16	6%	-12	-2.3&1.6
6	NC(=O)c1c(NC(=S)Nc2ccccc2)sc2c1CCCC2	nt	11%[15.4 µM]	56µM*	-6	nt	0	1.1
7	CC(=O)Nc1ccc(Nc2cc(C)nc3c(-c4ccccc4)c(C)nn23)cc1	-12%	18%	-4%	3	0%	13	0.8
8	COc1ccc(C2=Nn3c(nnc3C(F)(F)F)SC2)cc1	2.9%	?	9%	16	0%	nt	0.9
9	C#CCNC(=O)C1=C[C@@H](c2cn(C(C)=O)c3ccccc23)C[C@@H](OCc2ccc(CO)cc2)O1	-0.9%	-45%[inhibitor]	-1%	4	-16%	0	1.9
10	O=c1[nH]cnc2onc(-c3ccc(F)cc3)c12	0.2%	5%[15.4 µM]	12%	?	-22%	7	-6.7
11	Cn1nnnc1SCc1cccc2ccccc12	nt	-8%[15.4 µM]	-14%	-18	7%	-1	1.6
12	CCC(C)c1ccc(NC(=O)COC(=O)C2CCCC2)cc1 (centres undefined)	-3.4%	0%	nt	nt	8%	13	nt
13	CCC(C)[C@H](NC(=O)NCc1ccc(Cl)cc1)C(=O)OC (some centres undefined)	-1.5%	1%	4%	-2	6%	5	0.6
14	C/C(=C\c1ccc(N)cc1)c1nc2ccccc2[nH]1	-7.3%	-42%[inhibitor]	-1%	-10	10%	0	0.8
15	CCCC(OC(=O)CC1Sc2ccccc2NC1=O)C(=O)NCc1ccco1 (centres undefined)	-0.1%	?	-9%	25	-18%	10	-0.3
16	CN(c1ccccc1C(=O)Nc1ccc2ccccc2c1)S(C)(=O)=O	2.2%	-11%	nt	nt	-7%	7	nt
17	COc1cc(/C=C/C(=O)OCc2c(C)noc2C)ccc1OC(F)F	?	7%	15%	-25	-14%	-2	-0.3
18	COc1ccc(NC(=O)N2CCCCC2)cc1	-1.4%	?	14%	-13	4%	6	4.5
19	COc1ccccc1NC(=O)COc1ccccc1C(=O)c1cnn(-c2ccccc2)c1	-0.8%	-22%	1%	4	?	nt	2.5
20	O=C(O)CN(c1ccccn1)S(=O)(=O)c1ccccc1	28µM*	-2%	1%	-13	14%	1	0.0
21	CCOC(=O)CN1C(=O)c2ccccc2C1=O	-1.9%	1%	25%	-5	4%	0	3.4
22	Cc1sc2ncnc(N3CCC(C(=O)NNC(=O)COc4ccccc4F)CC3)c2c1C	-13%	-25%	nt	4	-22%	-3	nt
23	C#Cc1ccc([C@H]2C=C(C(=O)NCc3nc4ccccc4[nH]3)O[C@@H](OCC)[C@@H]2CCCO)cc1	-1.0%	-14%	nt	nt	?	-3	nt
24	CC(NCc1ccc2c(c1)OCO2)C(=O)NC1CCCc2ccccc21 (centres undefined)	2.3%	?	-22%	-16	0%	1	3.7
25	O=C(c1ccc(Cl)cc1Cl)N1CCN(c2ccccn2)CC1	0.7%	5%[15.4 µM]	2%	1	9%	-1	-2.3
26	Cc1ccc(NC(=O)Nc2ccc3c(c2)OCO3)cc1F	1.4%	?	9%	1	18%	6	1.4
27	N#Cc1ccc(-c2cccnc2)nc1SCC(=O)Nc1sc2c(c1C#N)CCC2	0.1%	7%	-8%	8	1%	-4	?
28	Cc1cccc(NC(=O)C2(c3cccs3)CCOCC2)c1	-0.7%	-2%[15.4 µM]	3%	-9	6%	5	-0.5
29	Cc1cc(-c2ccccc2)n2nc(C)c(C#N)c2n1	?	-1%	1%	10	-4%	-7	-0.8
30	COc1cc2nc(SCc3c(C)noc3C)n(CCC3=CCCCC3)c(=O)c2cc1OC	-9.0%	-18%	-21%	5	-5%	-3	0.5
31	Cc1ccc(C)c(C(=O)CN2C(=O)NC3(CCc4ccccc43)C2=O)c1 (centres undefined)	-1.0%	-29%	nt	3	-10%	-1	nt
32	Cc1ccc(S(=O)(=O)Nc2ccc(N3CCOCC3)cc2)cc1[N+](=O)[O-]	nt	4%[15.4 µM]	-2%	-10	nt	7	2.1
33	Cc1cc(C)nc(SCC(=O)Nc2sc3c(c2C#N)CCC(C)C3)n1 (centres undefined)	2.3%	-8%	nt	nt	-16%	-1	nt
34	COc1ccc(S(=O)(=O)N2CC(=O)Nc3ccccc32)cc1	-0.8%	8%	24%	1	0%	-2	3.8
35	COc1ccc(CCNC(=O)CSc2nc3[nH]ncc3c(=O)n2-c2ccc(Br)cc2)cc1OC	0.1%	-13%	23%	-4	1%	nt	0.5
36	Nc1ccc(-c2cc3ccccc3oc2=O)cc1	-1.9%	-15%[15.4 µM]	4%	11	7%	-2	8.7
37	Cn1nc(-c2ccc(S(N)(=O)=O)s2)cc1C(F)(F)F	nt	-11%[15.4 µM]	5%	-7	13%	15	1.9
38	CN(C)c1ccc(/C=N\NC(=O)c2ccc(Cn3cc(Cl)cn3)cc2)cc1	86%	-9%	-6%	-13	-6%	3	-1.6
39	Cc1ccc(NNC(=O)c2cc(C)on2)c(C)c1	-0.8%	7%[15.4 µM]	-12%	6	4%	3	0.4
40	Cc1cccc(C)c1NC(=O)N1C2CCC1CC(O)(c1cccnc1)C2 (centres undefined)	-0.5%	11%[15.4 µM]	-19%	22	-2%	5	-0.5
41	CSc1ccc(CNc2nc3ccccc3n3cnnc23)cc1	nt	31%[15.4 µM]	25%	-4	25%	-1	1.8
42	O=C(c1cc2cc(F)ccc2[nH]1)N1CCc2ccccc2C1	-9.2%	-6%	-10%	-8	-9%	nt	-2.1
43	O=C(COC(=O)c1ccc(S(=O)(=O)N2CCCCC2)cc1)Nc1ccccc1	-0.2%	0%	nt	-11	3%	nt	nt
44	Oc1ccc(C=NNC(=S)Nc2cccnc2)nc1	?	?	nt	nt	2%	-6	nt
45	O=C1CCC[C@@H]2Cc3[nH]c4c(Cl)ccc(Cl)c4c3[C@@H]3CCN1[C@H]23	-0.8%	nt	0%	13	-12%	-2	5.5
46	COc1ccc(S(=O)(=O)N2CCOCC2)cc1NC(=O)c1ccc(SC)cc1OC	0.5%	10%	nt	nt	nt	0	nt
47	COC(=O)C(O)(CC(=O)Nc1ccc(Cl)cc1F)C(F)(F)F (centres undefined)	3.2%	-7%	9%	?	-1%	8	0.9
48	COc1ccc(Cc2nc3ccc(C(=O)N4CCC(C(N)=O)CC4)cc3o2)cc1	-4.7%	-4%	nt	nt	nt	2	nt
49	CCN(CC(=O)NCc1cccs1)C(=O)c1cccc(S(=O)(=O)N2CCc3ccccc32)c1	nt	3%	9%	-17	-10%	2	-1.3
50	CC(C)Oc1cccc(C(=O)Nc2ccc(CN3CCOCC3)cc2)c1	0.9%	-6%	13%	2	1%	0	2.0
51	Cc1cc(-c2onc(C)c2C(=O)O)no1	0.8%	-8%[15.4 µM]	8%	19	6%	0	-0.7
52	Nc1nc(C(=O)N2CCOCC2)nn1S(=O)(=O)c1ccccc1	-0.9%	-23%	1%	?	8%	1	-1.2
53	CC(OC(=O)c1cc(=O)[nH]c2ccccc12)C(=O)N1C(C)CCCC1C (centres undefined)	-15%	0%	nt	2	6%	3	nt
54	COCCn1nnnc1SCC(=O)c1ccccc1	-4.2%	0%	50µM*	11	-1%	-3	1.0
55	CC(c1ccccc1)n1cnc2ccccc21 (centres undefined)	-2.7%	-46%[inhibitor]	4%	-15	-8%	-5	3.5
56	CCc1ccc2cccc3c2c1N=CN3C	nt	-16%[15.4 µM]	nt	nt	1%	-4	nt
57	CCN(CC)CCNC(=O)c1ccc(NC(=O)C2CC(=O)N(CCc3ccc(OC)c(OC)c3)C2)cc1 (centres undefined)	0.4%	-13%	nt	1	17%	3	nt
58	CC(C)CNC(=O)c1cccc(NC(=O)c2ccccc2-c2ccccc2C(=O)O)c1	-1.0%	6%	13%	-23	-1%	6	-2.5
59	Clc1cccc(Cl)c1CSc1nnc2ccccn12	-2.9%	-8%[15.4 µM]	10%	0	14%	18	0.4
60	COC(=O)CN1C(=O)N/C(=C/c2ccc(OC)c(C)c2OC)C1=O	nt	15%[15.4 µM]	-16%	-20	3%	-5	1.9

The results go on:
item	smiles	ClpP mod	gsp agonist	Sfp inh	TRPV1 PAM	gsp antag	CtBP-E1A inh	Menin MLL FP FL
61	Cc1cc(NS(=O)(=O)c2ccc(NC(=O)c3ccc([N+](=O)[O-])s3)cc2)nc(C)n1	0.9%	15%[15.4 µM]	nt	nt	10%	?	nt
62	O=C(CN1CCC(Cc2ccccc2)CC1)NC(=O)NCc1ccccc1	0.2%	-11%[15.4 µM]	24%	-6	13%	0	1.9
63	COc1ccccc1N1CCN(C(=O)c2cc3c(-c4ccc(Cl)cc4)nn(C)c3s2)CC1	-2.2%	-1%	?	4	-3%	1	2.1
64	COc1cccc(NC(=O)C2CCN(S(=O)(=O)c3ccc4c(c3)C(C)(C)C(=O)N4C)CC2)c1	-1.1%	4%	3%	-6	-8%	3	-1.4
65	CCC(=O)Nc1ccnc(-c2cccnc2)n1	0.9%	?	21%	-4	1%	0	0.5
66	Cc1ccc(/C=N/NC(=O)CC(=O)NCc2cccnc2)cc1	-1.8%	0%	17%	-2	7%	19	0.5
67	O=C(Nc1ccc2c(c1)OCCO2)c1cccnc1	-3.0%	15%	14%	-15	8%	-5	-5.8
68	COc1ccccc1C(=O)Nc1ccccc1N1CCOCC1	-1.9%	18%	15%	2	6%	2	3.3
69	C=CCOC(=O)C1=C[C@@H](c2ccccc2)C[C@@H](OCc2ccc(CO)cc2)O1	-1.5%	nt	?	28	-14%	3	0.5
